FGF22 binding: binders of human FGF22 protein, primary screen, FGF22 synaptogenesis inhibitor project, biophysical, thermal shift, single point; Fibroblast growth factor 22 (Homo sapiens), Q9HCT0; recombinant FGF22 thermal shift, SYPRO orange fluorescence; percent of sucrose octasulfate shift, DMSO zero; calls only at 9.99 µM; 340,000 tested, 1.5% active; AID 651658, 2012;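 active means melting point raised past a set limit in the mean and every replicate; inconclusive means no clear call; three in four hits are not shown here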
HNF4A DNA FP: change in binding of human HNF4A to DNA, primary screen, biochemical, fluorescence polarization, FITC-DNA | activity change, % at 10 µM | 1 h | 360,000 tested, 0.3% active | Hepatocyte nuclear factor 4-alpha (Homo sapiens), P41235; in the data active means activity change above about 30%, passing the limit was not always enough;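 further: controls were the assay level and a saturating level of protein; the project sought stronger binding though the title names inhibitors; some compounds called inactive have numbers as strong as hits; positive values seem to mean higher polarization but the record does not say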
Target sequence (P41235 whole entry, looked up): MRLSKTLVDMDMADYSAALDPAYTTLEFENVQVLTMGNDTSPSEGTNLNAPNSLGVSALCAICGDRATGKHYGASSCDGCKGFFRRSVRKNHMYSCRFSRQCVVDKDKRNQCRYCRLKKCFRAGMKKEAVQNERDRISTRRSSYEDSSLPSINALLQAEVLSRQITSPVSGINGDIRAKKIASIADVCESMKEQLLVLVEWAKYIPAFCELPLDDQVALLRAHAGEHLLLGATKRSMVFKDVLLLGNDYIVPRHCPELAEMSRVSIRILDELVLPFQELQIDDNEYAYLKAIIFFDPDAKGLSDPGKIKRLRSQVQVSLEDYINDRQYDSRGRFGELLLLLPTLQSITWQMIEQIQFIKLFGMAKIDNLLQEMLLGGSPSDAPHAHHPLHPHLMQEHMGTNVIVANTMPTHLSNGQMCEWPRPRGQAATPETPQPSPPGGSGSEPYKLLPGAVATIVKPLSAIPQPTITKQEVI
MLL AF4-AF9 inh: inhibitors of AF4 peptide binding to AF9, primary screen, biochemical, AlphaScreen, biotin-AF4 peptide, FLAG-AF9, single point. Protein AF-9 (Homo sapiens), P42568. 350,000 tested, 0.47% active. inhibition, % at 10 µM. AID 651704, 2012;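 active means every replicate reaching a set inhibition limit, whatever the replicate mean, cut at about 25% in these data; inconclusive means mean inhibition reaches that limit but some replicates miss it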;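 further: 0% = plate neutral control median and 100% = total signal loss; the record names both 10 and 1 µM as test concentration; the first replicate is given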
Target sequence (P42568 whole entry, looked up): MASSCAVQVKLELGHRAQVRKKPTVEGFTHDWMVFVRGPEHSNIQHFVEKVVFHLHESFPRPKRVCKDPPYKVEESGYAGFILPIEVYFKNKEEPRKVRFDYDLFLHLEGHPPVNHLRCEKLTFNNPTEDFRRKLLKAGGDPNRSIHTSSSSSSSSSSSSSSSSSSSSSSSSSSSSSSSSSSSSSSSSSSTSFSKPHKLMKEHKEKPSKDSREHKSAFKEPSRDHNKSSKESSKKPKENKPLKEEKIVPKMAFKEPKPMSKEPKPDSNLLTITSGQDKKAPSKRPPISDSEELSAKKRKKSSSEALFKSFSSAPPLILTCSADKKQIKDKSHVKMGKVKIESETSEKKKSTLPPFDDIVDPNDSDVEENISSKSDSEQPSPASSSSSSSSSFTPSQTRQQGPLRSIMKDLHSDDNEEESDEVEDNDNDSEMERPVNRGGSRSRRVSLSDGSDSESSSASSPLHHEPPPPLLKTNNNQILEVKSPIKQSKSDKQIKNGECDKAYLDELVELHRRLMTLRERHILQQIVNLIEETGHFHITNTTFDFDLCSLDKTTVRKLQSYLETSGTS
ALR H2O2 inh: inhibitors of human ALR sulfhydryl oxidase, primary screen, biochemical, H2O2 detection, HRP-luminol luminescence, single point; 290,000 tested, 3.8% active; inhibition, % (no concentration beside the values); purified ALR, DTT oxidation;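 active means mean and each replicate at 75% or more; inconclusive means only one of the two met; inactive means neither met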;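 further: stock transfer was 7.5 nL into about 7.5 µL; 0% = neutral wells and 100% = wells with inactivated enzyme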
Vif TR-FRET: inhibitors of Vif binding to APOBEC3G peptide, primary screen, biochemical, TR-FRET, GST-Vif 1-94, biotin-A3G peptide, dose response retest (AID 1117319); Virion infectivity factor (Human immunodeficiency virus type 1 group M subtype B (isolate …; TR-FRET GST-Vif / biotin-A3G peptide binding; higher % means a stronger effect; test concentration not given here; strong numbers were not always called active; inhibition, %; hits with a dose series show IC50 in µM; 260,000 tested, 0.57% active;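 active means above the screen mean plus three standard deviations and confirmed in dose response; inconclusive means results disagree or hit not tested in dose response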;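 further: Vif residues 1-94 fused to GST binding biotinylated APOBEC3G peptide 110-148; 0% = full assay without inhibitor and 100% = GST in place of GST-Vif; retest series ran down from 100 µM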
rRNA inh HTS: reduced GFP signal of wild-type E. coli, primary screen, bacterial rRNA inhibitor project, GFP/RFP fluorescence, OD600, single point; 350,000 tested, 1.6% active; AID 720706, 2013; GFP signal change (wild-type ribosome), % (concentration not given with the values); E. coli WT GFP vs humanized-ribosome RFP mutants, 24 h; active compounds read low; DMSO median 0, no signal -100;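 active means significant combined selectivity score with lowered wild-type GFP, culture density cut under 30%, mutant RFP and density less affected; inactive means any of these conditions unmet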; further: one replicate is shown; some compounds called inactive have numbers as strong as hits
E coli growth: E. coli growth inhibition, primary screen, OD600; Escherichia coli growth, 23 h; active compounds read low; OD600 absorbance (no concentration beside the values); 330,000 tested, 0.21% active; AID 1053175, 2014;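 active means OD600 absorbance below the run mean of sample wells minus 3.6 SD, in any replicate, cut at about 0.56 in these data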;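 further: stock transfer was 300 nL into about 60 µL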
rRNA inh HTS OD600: also measured in rRNA inh HTS; calls as there; OD600 change, %; measured here: OD600 growth;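 optical density of the mix in the first replicate; 0 = DMSO median and -100 = no signal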
rRNA inh HTS RFP: further read-out of rRNA inh HTS, marked with its call; RFP signal change, %; measured here: RFP humanized mutant strains;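 first replicate; 0 = DMSO median and -100 = no signal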
Starred values were filed as active, the others as inactive; i = inactive; ? = inconclusive; · = no result given; & = joins results of further samples.

SMILES | FGF22 binding | HNF4A DNA FP | MLL AF4-AF9 inh | ALR H2O2 inh | Vif TR-FRET | rRNA inh HTS | rRNA inh HTS OD600 | rRNA inh HTS RFP | E coli growth
Cc1ccc(NC(=O)c2cn(CCC#N)nc2-c2ccc3c(c2)OCCO3)c([N+](=O)[O-])c1 | i | 1.6 | 8.7 | 7 | · | · | · | · | 0.68
O=C(O)c1ccc2c(c1)C1C(Cl)C(Sc3ccccc3[N+](=O)[O-])CC1C(c1cccc([N+](=O)[O-])c1)N2 (stereo unspecified) | · | -13 | · | · | 12µM* | · | · | · | 0.7
C[C@H](CO)N1C[C@H](C)[C@@H](CN(C)C(=O)Oc2ccc3ccccc3c2)OCc2cnnn2CCCC1=O | i | -4.7 | 0.5&1.4 | · | -13% | 1&-2 | 2&3 | -2.3&-2.3 | ·
Cc1ccc(-c2nc3ccccc3c(=O)n2-n2cccc2)cc1 | · | -2.0 | · | -8 | -8% | · | · | · | 0.73
Cc1c(C=C2C(=O)N(C)C(=S)N(C)C2=O)c2ccccc2n1CC(=O)NCC1CCCO1 (stereo unspecified) | i | 3.9 | -1.7 | 61 | · | 20 | 19 | 21 | 0.7
COC(=O)C1=C(c2cccc(OCc3ccccc3)c2)C[C@@H]2CC[C@H]1N2C(=O)NCc1ccccc1C(F)(F)F | i | -0.7 | 0.8 | 31 | · | 17 | 16 | -2.6 | ·
CCCCC(=O)N/N=C/c1c(O)n(CC)c(=S)[nH]c1=O | i | -1.9 | -4.0 | 3 | 2% | 0 | -1 | 2.8 | 0.7
Cc1cc(C)c(NC2=NCCS2)cc1C | i | 2.6 | 1.6 | · | -6% | -6 | -14 | -0.1 | ·
COc1ccc(N=Cc2c(O)n(Cc3cccs3)c(=O)[nH]c2=O)cc1 | i | -0.2 | -6.1 | -32 | ? | 18 | 12 | 3.0 | 0.69
CC1(C(=O)O)CCC2(C)CCC3(C)C(=CC(=O)C4C5(C)CCC(=O)C(C)(C)C5CCC43C)C2C1 (stereo unspecified) | i | -1.6 | -3.6 | · | 4% | 1 | -5 | 0.6 | ·
Cc1ccc(NP(=O)(Nc2ccc(C)cc2)Oc2ccccc2)cc1 | i | -3.4 | 1.4 | -4 | 2% | -59 | -80 | -24 | 0.68
CCOC(=O)CNC(=O)N1Cc2cc(-c3ccc(OC)cc3)ccc2-n2nncc2C1 | i | 2.0 | 1.0 | · | · | -18 | -16 | 0.8 | ·
CN(Cc1ccccc1)Cc1ccccc1OC(=O)N(C)C | · | -0.9 | · | -15 | ? | · | · | · | 0.66
CN(C)CC1CSCCC1(O)c1ccccc1 (stereo unspecified) | · | -0.5 | · | 2 | -5% | · | · | · | 0.71
COc1cccc(Oc2c(C)oc3cc(OC(=O)N(C)C)ccc3c2=O)c1 | · | 2.3 | -2.0 | · | -1% | · | · | · | 0.72
CC[C@H](OC(C)=O)C(C[C@H](C)N(C)C)(c1ccccc1)c1ccccc1 | i | 4.0 | · | · | · | -3 | 7 | 0.8 | 0.74
COc1ccccc1-n1c(O)c(C=NCCCn2ccnc2)c(=O)[nH]c1=O | · | 1.4 | · | -1 | ? | · | · | · | 0.7
Cc1nc2ccccc2c(=O)n1-c1ccc(Cl)cc1[N+](=O)[O-] | i | -1.5 | 9.6 | -15 | 9% | 3 | 5 | -0.7 | 0.67
Cc1c(C)c2ccc(OCC(=O)N3CCC(C(=O)O)(c4ccccc4)CC3)cc2oc1=O | i | 5.9 | -1.0 | -26 | · | · | · | · | 0.69
COC(=O)[C@H]1[C@H](CO)[C@H]2Cn3c(ccc(C4=CCCCC4)c3=O)[C@@H]1N2Cc1cccnc1 | i | · | 1.4 | · | · | 1 | 0 | 0.1 | ·
CNP(=O)(Oc1ccccc1)OC12CC3CC(CC(C3)C1)C2 (stereo unspecified) | i | 2.4 | 0.1 | -1 | -8% | -14 | 1 | 4.0 | 0.7
C/C(CCc1c[nH]c2ccccc12)=N\O | · | 5.8 | · | 98* | 2% | · | · | · | ·
COc1ccc(C2c3c(nc(C)[nH]c3=O)Oc3c2c(=O)oc2ccccc32)cc1 (stereo unspecified) | i | · | 7.9 | -9 | 21% | 4 | 11 | 2.2 | 0.68
CN1C(=O)C(Cc2ccsc2)C(=O)N(C)C1=O | · | 1.1 | · | 0 | 5% | · | · | · | 0.75
CCOc1cc2c(cc1OCC)-n1cccc1C(c1cc(OC)ccc1F)NC2 (stereo unspecified) | i | 1.2 | 27* | -9 | 1% | 0 | -25 | -1.0 | 0.67
O=C(Cc1ccccc1)N1CCCCN2[C@@H](CO)[C@@H](c3ccc(C#Cc4ccccc4)cc3)[C@@H]2C1 | i | · | 0.4 | · | · | -59 | -68 | -9.6 | ·
C/C(=N\Nc1ccccc1)c1c(O)[nH]c(=O)[nH]c1=O | i | 1.2 | -2.0 | -8 | ? | 7 | 0 | 5.3 | 0.63
COC(=O)C1=C(c2ccc(OC)c(OC)c2)C[C@@H]2CC[C@H]1N2C(=O)NCCOc1ccccc1 | i | -0.5 | -1.0 | -9 | · | -3 | -6 | -5.7 | ·
CCOC(=O)[C@]1(C#N)[C@@H]2C=CC(C(C)=O)=CN2[C@@H](C(N)=O)[C@@H]1c1ccsc1 | · | -6.8 | · | · | 0%&14% | · | · | · | 0.8
CCN1C[C@]2(COC(=O)c3ccccc3N)CC[C@H](OC)C34[C@@H]5C[C@H]6[C@H](OC)[C@@H]5[C@](O)(C[C@@H]6OC)[C@@](O)([C@H]13)[C@@H](OC)[C@@H]42 | i | 1.9 | -1.0 | -6 | 6% | 4 | 14 | 0.7 | 0.69

6 entries from above, set out differently.
SMILES	FGF22 binding	HNF4A DNA FP	MLL AF4-AF9 inh	ALR H2O2 inh	Vif TR-FRET	rRNA inh HTS	rRNA inh HTS OD600	rRNA inh HTS RFP	E coli growth
C/C(CCc1c[nH]c2ccccc12)=N\O	·	5.8	·	98*	2%	·	·	·	·
COc1ccc(C2c3c(nc(C)[nH]c3=O)Oc3c2c(=O)oc2ccccc32)cc1 (stereo unspecified)	i	·	7.9	-9	21%	4	11	2.2	0.68
CN1C(=O)C(Cc2ccsc2)C(=O)N(C)C1=O	·	1.1	·	0	5%	·	·	·	0.75
CCOc1cc2c(cc1OCC)-n1cccc1C(c1cc(OC)ccc1F)NC2 (stereo unspecified)	i	1.2	27*	-9	1%	0	-25	-1.0	0.67
O=C(Cc1ccccc1)N1CCCCN2[C@@H](CO)[C@@H](c3ccc(C#Cc4ccccc4)cc3)[C@@H]2C1	i	·	0.4	·	·	-59	-68	-9.6	·
C/C(=N\Nc1ccccc1)c1c(O)[nH]c(=O)[nH]c1=O	i	1.2	-2.0	-8	?	7	0	5.3	0.63

New compounds follow:
SMILES | FGF22 binding | HNF4A DNA FP | MLL AF4-AF9 inh | ALR H2O2 inh | Vif TR-FRET | rRNA inh HTS | rRNA inh HTS OD600 | rRNA inh HTS RFP | E coli growth
CCOCCN1CCN(c2nnc3n2-c2ccc(Cl)cc2C(c2ccccc2Cl)=NC3)CC1 | · | -0.7 | · | -5 | 22% | · | · | · | 0.69
CC(Cl)(Cl)/C(=N/P(=S)(N1CCOCC1)N1CCOCC1)N1CCOCC1 | i | 1.7 | -0.5 | -17 | -3% | 1 | -1 | 1.1 | ·
CN1CCN(CC(=O)Nc2ccc([N+](=O)[O-])cc2C(=O)c2ccccc2)CC1 | i | 1.3 | 1.4 | 73 | · | 8 | 2 | -1.9 | 0.69
O=Cc1cn(Cc2ccc(Br)cc2)c2ccccc12 | i | 0.2 | 1.6 | -22 | -1% | -46 | -40 | -9.0 | 0.65
COc1ccc2c(c1)c(C(=O)CN1CCC3(CC1)OCCO3)c(C)n2Cc1ccccc1 | · | 1.9 | · | -3 | -1% | · | · | · | 0.73
COC(=O)C1=C(c2cccc(C#N)c2)C[C@@H]2CC[C@H]1N2C(=O)N1CCC(C)CC1 | i | 3.7 | 0.5 | 0 | · | -13 | -18 | 6.5 | ·
Cc1cc(/C=C2\C(=O)NC(=O)N(C)C2=O)c(C)n1-c1ccc2c(c1)OCO2 | · | -1.9 | · | -8 | 18% | · | · | · | 0.77
O=C(Cn1cnc2sc3c(c2c1=O)CCCC3)NCCCC(=O)N1CCC2(CC1)OCCO2 | · | 2.8 | · | · | 5% | · | · | · | 0.68
CSc1ncc(CN2CCCC(C(=O)c3cccc(Cl)c3)C2)cn1 (stereo unspecified) | i | -0.3 | 1.3 | -7 | 17% | -21* | -9.1* | -6.9* | 0.72
O=C(O)CCCCC1SCC2NC(=O)NC21 (stereo unspecified) | i | 1.2 | 70* | -8 | 0.27µM* | 3 | 9 | 1.0 | ·
CCOC(=O)C1CCN(/C=C2/C(=O)NC(=O)N(Cc3ccco3)C2=O)CC1 | · | -1.9 | · | -9 | ? | 5 | 5 | -2.2 | ·
CN(CCCCC(=O)/C=N/O)Cc1ccccc1 (tested in a mixture with another compound) | · | -1.9 | · | -1 | -4% | · | · | · | ·
Cn1c(O)c(C=NCCCN2CCCC2=O)c(=O)n(C)c1=O | · | -0.8 | · | 1 | 0% | · | · | · | 0.71
CN1CCN(c2ccc([N+](=O)[O-])c(Sc3ccccn3)c2)CC1 | i | -10 | 1.2 | -2 | 3% | 10 | -9 | -2.1 | 0.69
CCOC(=O)c1cc2ccccc2n1C1CCN(Cc2ccccc2)CC1 | i | 3.1 | 5.4 | · | · | -12 | -38 | -1.3 | ·
Cc1ccccc1-n1c(/C=C/c2ccccn2)nc2ccccc2c1=O | i | -2.5 | -19 | -4 | 17% | 4 | 4 | -1.1 | 0.63
CCCCn1c(O)c(C(C)=Nc2cccc(C(=O)O)c2)c(=O)[nH]c1=O | · | 1.3 | · | -2 | 8% | 16 | 6 | 5.4 | 0.71
COc1cccc(C(c2nnnn2Cc2ccccc2)N2CCC3(CC2)C(=O)NCN3c2ccccc2)c1OC (stereo unspecified) | i | 3.6 | 3.3 | · | · | 3 | 4 | 0.5 | ·
COc1ccc(NC2(C#N)CCCCC2)cc1 | i | 1.1 | 0.5 | -11 | -6% | 5 | 7 | -0.9 | 0.65
Cn1c(C(=O)N2CCC(C(=O)N3CCC4(CC3)OCCO4)CC2)cc2sccc21 | · | -1.6 | · | -2 | -6% | · | · | · | 0.73
O=C1N(c2cccc(Cl)c2)C(c2ccccc2)N2CCCN12 (stereo unspecified) | · | -2.6 | · | -2 | · | · | · | · | 0.72
O=C1c2ccccc2-c2cccc3cccc1c23 | i | -28 | 0.3 | · | · | 4 | 0 | 29 | ·
Cc1nn(CC(C)C)c(Cl)c1C(=O)NC1CCC(C)CC1 (stereo unspecified) | i | -2.3 | -0.9 | 5 | -8% | -4 | 3 | -6.4 | 0.66
Cc1[nH]c2ccccc2c1C1=CCNCC1 | i | 24 | 38* | 94* | 16% | -56 | -80 | -34 | 0.69

This is a subset, so the mix of outcomes need not match the whole.
